From PubChem BioAssay
B2AR ag = human beta-2 adrenergic receptor agonism by FAP; 340,000 tested, 0.43% active; Am2.2-beta2AR cells, FAP receptor internalization, flow cytometry; reference of the scale not given here; P07550; response, % (concentration not given with the values); AID 504454;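 active = response above a set limit, near 3 SD of response in nonfluorescent compounds, cut at about 42% in these data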;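 note: stock transfer was 100 nL into about 11 µL; a reference agonist was the positive control; negative values mostly stem from fluorescent compounds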
Target sequence (P07550 whole entry, looked up): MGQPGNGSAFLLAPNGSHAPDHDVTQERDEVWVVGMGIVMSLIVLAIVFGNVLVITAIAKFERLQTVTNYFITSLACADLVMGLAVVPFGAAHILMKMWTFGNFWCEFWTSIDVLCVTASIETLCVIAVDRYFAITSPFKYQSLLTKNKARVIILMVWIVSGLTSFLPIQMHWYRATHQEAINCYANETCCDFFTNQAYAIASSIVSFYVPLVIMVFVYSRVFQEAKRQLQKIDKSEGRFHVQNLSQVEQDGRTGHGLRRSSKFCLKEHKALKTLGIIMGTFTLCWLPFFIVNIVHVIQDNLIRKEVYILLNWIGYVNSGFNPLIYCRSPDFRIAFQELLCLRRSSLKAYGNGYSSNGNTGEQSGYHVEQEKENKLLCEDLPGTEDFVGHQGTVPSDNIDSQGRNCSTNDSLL
Beta apoptosis = beta cell apoptosis inhibition; INS-1E cytokine-induced death, ATP luminescence, 48 h; percent of positive-control rescue, neutral wells zero; protection from apoptosis, % (concentration not given with the values); 300,000 tested, 0.8% active; AID 435005;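 active = all replicates at 75% or more, or half of them and the mean; inconclusive = half reach 75% but not the mean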;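 note: 0% = cytokine-treated negative control wells and 100% = positive control rescue; higher means more ATP so stronger rescue from cytokine killing; wells of about 40 µL received 100 nL stock; the first replicate is given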
T cruzi repl = blocks replication of Trypanosoma cruzi | T. cruzi beta-gal in NIH3T3, luminescence, 90 h | inhibition, % (no concentration beside the values) | 300,000 tested, 1.4% active | AID 1885;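 active = mean inhibition across valid replicates above about 55%, limit read from the data; inconclusive = mean below that limit but half or more replicates reach it; inactive = mean below it, under half of replicates reach it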;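 note: signal also drops with host cell toxicity which is not excluded here; 0% = plate median of DMSO wells and 100% = zero luminescence signal; higher percent means less beta-gal luminescence so fewer parasites; stock transfer was 50 nL into about 50 µL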
Bfl-1 A1 inh = inhibitors of the anti-apoptotic protein A1, read as caspase activation | MEF A1-2A-BIM cells, Caspase-Glo 3/7 luminescence, 3 h; percent of clofoctol response, vehicle zero | caspase activation, % (no concentration beside the values) | 330,000 tested, 0.066% active | AID 2462;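 active = over half of replicate activation scores above 10%, or exactly half above 10 with the replicate mean above 10; inconclusive = replicate mean below 10 yet half the replicates above 10; inactive = over half of replicates below 10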;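 note: wells of about 30 µL received 50 nL stock; many hits fall short of the cut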
ALR inh = inhibitors of human sulfhydryl oxidase ALR; P55789; purified ALR, DTT oxidation, H2O2 HRP-luminol luminescence; inhibition, % (test concentration not listed); 290,000 tested, 3.8% active;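 active = mean and each replicate at 75% or more; inconclusive = only one of the two met; inactive = neither met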;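 note: stock transfer was 7.5 nL into about 7.5 µL; 0% = neutral wells and 100% = wells with inactivated enzyme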
Target sequence (P55789 whole entry, looked up): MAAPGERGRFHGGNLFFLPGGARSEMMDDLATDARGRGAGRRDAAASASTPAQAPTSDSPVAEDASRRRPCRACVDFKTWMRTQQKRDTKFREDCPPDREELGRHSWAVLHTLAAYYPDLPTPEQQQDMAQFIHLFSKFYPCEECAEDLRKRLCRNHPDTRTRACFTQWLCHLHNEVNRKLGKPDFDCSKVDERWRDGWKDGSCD
Ecoli rRNA inh = inhibitors of bacterial rRNA selective over humanized ribosomes | E. coli WT GFP vs humanized-ribosome RFP mutants, fluorescence, 24 h; active compounds read low; DMSO median 0, no signal -100 | GFP signal change (wild-type ribosome), % (test concentration not listed) | 350,000 tested, 1.6% active;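 active = significant combined selectivity score with lowered wild-type GFP, culture density cut under 30%, mutant RFP and density less affected; inactive = any of these conditions unmet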; note: one replicate is shown; some compounds called inactive have numbers as strong as hits
Calb FLC = C. albicans growth modulation with fluconazole; C. albicans CaCi-2 (fluconazole-resistant clinical isolate) + fluconazole, Alamar Blue growth, 48 h; growth inhibition, % (no concentration beside the values); 300,000 tested, 0.57% active;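 active = most replicates above 75%; inconclusive = exactly half above 75%; inactive = most below 75%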;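 note: all wells also contain fluconazole at 8 µg/ml as a sub-toxic cotreatment; 0% = median of DMSO wells and 100% = median of geldanamycin control wells; wells of about 8 µL received 7.5 nL stock; the first replicate is given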
LANA-H2A inh = blocks KSHV LANA binding to histone H2A/H2B | Q9QR71 | cell-free LANA-H2A/H2B peptide, fluorescence polarization | inhibition, % (test concentration not listed) | 320,000 tested, 0.6% active; in the data active = inhibition mostly above about 10%, no sharp cut-off; inactive = mostly below about 6.7%;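 note: stock transfer was 7.5 nL into about 10 µL; 0% = median of vehicle wells and 100% = median of positive control wells; one replicate is shown; the record names a cut of 25% in any replicate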
Ecoli rRNA inh OD600 = further read-out of Ecoli rRNA inh, marked with its call; OD600 change, %; measured here: OD600 growth;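 optical density of the mix in the first replicate; 0 = DMSO median and -100 = no signal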
Ecoli rRNA inh RFP = also measured in Ecoli rRNA inh; calls as there; RFP signal change, %; measured here: RFP humanized mutant strains;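 first replicate; 0 = DMSO median and -100 = no signal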
An asterisk follows results filed as active; ? = inconclusive; nt = no result given. A portion of the library; the hit share may differ from the screen's.

SMILES | B2AR ag | Beta apoptosis | T cruzi repl | Bfl-1 A1 inh | ALR inh | Ecoli rRNA inh | Ecoli rRNA inh OD600 | Ecoli rRNA inh RFP | Calb FLC | LANA-H2A inh
Cc1ccc2c(c1)c(N=Nc1cccc(C(=O)O)c1)c(O)n2C | -4 | -5 | -9 | -0.9 | 36 | nt | nt | nt | 53 | -2.3
CCOC(=O)c1c(NC(=O)CSc2ncnc3[nH]ncc23)sc2c1CCC(C)C2 (configuration not stated) | 20 | 5 | 26 | 0.3 | 23 | 1 | 0 | 0.3 | -6 | 2.5
Cc1nc(Nc2ccc3c(c2)OCCO3)c2nnn(Cc3ccccc3Cl)c2n1 | 18 | 6 | 55* | 0.1 | -2 | nt | nt | nt | 8 | 2.0
CC1=C(C(=O)OCc2ccccc2)C(c2ccccc2OS(=O)(=O)c2ccc(C)cc2)NC(=O)N1CCCC(=O)O (configuration not stated) | nt | -1 | 5 | 0.7 | 8 | -2 | 10 | -3.7 | 6 | -4.7
Cn1cccc1C(=O)NNC(=O)COc1ccccc1Cl | 1 | 0 | nt | -0.2 | 5 | 6 | 7 | -2.8 | nt | 0.9
Cc1ccc(OCC(=O)NCc2ccco2)cc1C | -1 | -2 | -14 | -0.8 | 2 | nt | nt | nt | 3 | -3.3
COc1ccc(-c2nc3c(c4nnc(SC(C)C(=O)Nc5ccccc5)n24)COC(C)(C)C3)cc1 (configuration not stated) | 3 | 2 | -8 | -0.1 | -3 | 8 | 11 | 1.7 | -18 | 4.4
CCN(CC(=O)Nc1c(F)cccc1F)C(=O)c1cc(S(=O)(=O)NCc2ccccc2)ccc1C | -3 | nt | 11 | 0.3 | 2 | 3 | 5 | 4.0 | 3 | 1.0
CN1CCN(c2nc(-c3cccs3)cs2)CC1 | -3 | -4 | 1 | 0.0 | -12 | 3 | 3 | 7.1 | 32 | -0.9
O=c1cc(CN2CCN(c3ccccc3)CC2)c2cc(O)c(-c3ccccc3)cc2o1 | -14 | 17 | -6 | 2.7 | 3 | nt | nt | nt | -29 | -9.8
CCn1c(=O)c(C(=O)Nc2ccccc2C)c(O)c2ccccc21 | 12 | nt | -11 | -0.1 | nt | nt | nt | nt | -14 | 0.3
C[C@@H]1NC(=O)c2cc([N+](=O)[O-])cc(I)c2OCC[C@@H](C(=O)NC(CC(=O)O)C(N)=O)NC(=O)[C@H](CCC(=O)O)NC1=O (some centres not stated) | nt | -6 | nt | 0.0 | -9 | nt | nt | nt | nt | -0.1
COc1ccc(C2CC(=O)N(c3ccccc3)C3=C2C(=O)CCC3)cc1 (configuration not stated) | -7 | -2 | -5 | 0.5 | -2 | 7 | 4 | 2.4 | -5 | -1.5
c1ccc2c(c1)nc(N1CCOCC1)c1c3ccccc3[nH]c21 | -4 | 17 | 16 | 0.1 | 17 | -44 | -76 | -27 | -3 | 1.9
C=CCNCCCCOc1ccccc1-c1ccccc1 | -12 | 7 | -15 | -0.1 | -5 | nt | nt | nt | -11 | 4.8
Cn1c(=O)c2c(nc(Br)n2CCSc2ncccn2)n(C)c1=O | -16 | 3 | -9 | 0.0 | 3 | nt | nt | nt | 11 | 2.5
CC12CC(NC(=O)N1Cc1ccccc1)c1ccccc1O2 (configuration not stated) | 12 | -2 | -25 | 0.1 | -7 | -3 | -10 | -0.5 | -1 | 1.3
CSc1nc2c(cc1C#N)CCCCC2 | -5 | -1 | 3 | 2.0 | -57 | 2 | 11 | 21 | 12 | 0.1
COc1ccc(S(=O)(=O)N(C)C)cc1NCC(=O)Nc1cccc(C#N)c1 | -2 | -2 | 11 | -1.0 | 0 | -21 | -17 | -3.8 | -18 | 1.4
COc1ccc(C)cc1Nc1nc(N)c2ccccc2n1 | -2 | 1 | 48 | -0.9 | 65 | -4 | -3 | -0.6 | 2 | -0.6
Cc1ccc(SCc2nc3ncccn3c2Br)cc1 | -23 | nt | 12 | 0.5 | nt | nt | nt | nt | -13 | -1.3
COc1cc(C(C)=O)ccc1COc1ccc(C(=O)OCC(=O)NC2CCS(=O)(=O)C2)cc1OC (configuration not stated) | -15 | -8 | -6 | 0.4 | 22 | nt | nt | nt | -8 | 1.1
N/C(=N\OC(=O)c1ccc2c(c1)OCO2)c1cccc(Br)c1 | 9 | -9 | -5 | -5.4 | 54 | 15 | 6 | -1.3 | 14 | -0.4
COc1cccc(C(=O)NCc2ccco2)c1 | -3 | nt | -6 | -0.6 | -5 | 4 | 8 | -1.9 | 1 | 0.7
COc1cc(/C=C/c2nc3ccc([N+](=O)[O-])cc3s2)ccc1OCC(=O)O | nt | 2 | -7 | -4.4 | -9 | nt | nt | nt | 5 | 4.1
CCOc1ccccc1N/C=C/C(=O)C(C)(C)C | -5 | -3 | 6 | 0.2 | -24 | nt | nt | nt | 5 | -1.2
O=C(CN(Cc1ccc(Cl)cc1)C(=O)CN1C(=O)COc2ccccc21)NC1CCCC1 | 0 | -1 | 2 | 0.8 | 4 | 7 | 10 | 0.6 | 14 | -3.8
Cc1cccc(N2CCN(C(=O)c3ccc(CNc4c(N5CCC(C)CC5)c(=O)c4=O)cc3)CC2)c1C | 9 | 10 | 45 | -0.4 | -2 | -3 | -15 | -3.6 | -13 | 0.5
CN(CC(=O)Nc1ccc(N2CCOCC2)cc1)Cc1cc(=O)n2ccsc2n1 | 2 | 5 | -4 | -0.7 | nt | 14 | 6 | 3.6 | -2 | 1.3
O=C(CSc1nnc(CNC(=O)c2ccco2)o1)Nc1cccc(C(F)(F)F)c1 | -9 | -4 | -8 | 0.1 | -3 | -1 | -6 | -1.5 | 0 | -3.3
COc1ccc(OC)c(Cc2nnc(CCC(=O)NCc3ccsc3)o2)c1 | 3 | -3 | -10 | -1.9 | 17 | 6 | 3 | -0.5 | -25 | -0.1
NC(=O)c1ccsc1NC(=O)COC(=O)Cc1c[nH]c2ccccc12 | 2 | -8 | -1 | -0.2 | nt | -18 | -22 | 2.6 | 7 | -5.6
CC(C)(C)C(=O)Nc1ccc(-c2nnc3n2CCCCC3)cc1 | 0 | -5 | -6 | 1.8 | -17 | 11 | 4 | -3.4 | -8 | -1.0
CC1CCc2nn(CC(=O)NCc3ccc(F)cc3)cc2C1 (configuration not stated) | 1 | -2 | -1 | 0.0 | 39 | 11 | 10 | -1.6 | 13 | 4.0
COc1ccc(C(CNC(=O)c2cccc(NS(=O)(=O)c3ccc(C)c(F)c3)c2)N2CCCC2)cc1 (configuration not stated) | 4 | 5 | -13 | -0.5 | -7 | 0 | 0 | 1.4 | -5 | 3.4
COc1ccc2nc(NC(=O)c3ccc(NS(=O)(=O)c4cccs4)cc3)sc2c1 | 19 | -4 | -8 | -0.7 | nt | nt | nt | nt | -2 | 0.9
CC(C)Cn1cnc2c1c(=O)n(CC(=O)NC(=O)NC(C)(C)C)c(=O)n2Cc1ccccc1 | 2 | -6 | 19 | -0.1 | -2 | 4 | 12 | -1.6 | -4 | 1.7
Cc1ccnc(NS(=O)(=O)c2ccc(NC(=O)CN3C(=O)CCC3=O)cc2)n1 | 0 | 0 | -21 | -0.2 | -9 | -2 | 4 | -1.8 | 5 | -1.7
Cc1cc(=O)[nH]c(N2CCc3ccccc3C2)n1 | -5 | -3 | -5 | -0.2 | 31 | nt | nt | nt | -15 | -5.2
CN(C)c1ccc(/C=N/NC(=O)CNC(=O)/C=C/c2ccco2)cc1 | -2 | -5 | 1 | 0.5 | 91* | 2 | 10 | -1.4 | -2 | 2.1
O=C(CSc1ccccn1)NC1CCCC1 | nt | -3 | -8 | 1.4 | 10 | nt | nt | nt | -20 | -0.2
CCCCNC(=S)NNC(=O)c1ccc2c(c1)OCO2 | -7 | 0 | -11 | 0.2 | 28 | 0 | 2 | 2.5 | ? | -0.2
O=C(O)c1cc(NC(=O)c2cccc(N3C(=O)c4ccccc4C3=O)c2)cc(C(=O)O)c1 | 8 | -9 | -9 | 0.4 | 0 | 7 | 11 | -1.4 | -4 | 4.4
CC1CC(C)CN(CCCNC(=O)C2CCCN(S(=O)(=O)N3CC(C)CC(C)C3)C2)C1 (configuration not stated) | -1 | -2 | 33 | 0.2 | -1 | 12 | 6 | 0.8 | -12 | 1.0
CC1CN(C(=O)c2ccccc2)OC(c2ccc3c(c2)OCO3)O1 (configuration not stated) | 6 | 2 | -14 | -0.3 | 3 | nt | nt | nt | 0 | -2.6
COc1ccc(C2(C(=O)O)CCCC2)cc1 | 6 | -5 | -13 | 0.8 | -11 | nt | nt | nt | 10 | 6.4
COC(=O)c1scc(C)c1NC(=O)C(Cl)c1ccccc1 (configuration not stated) | -2 | 7 | -6 | -0.2 | 3 | 2 | -3 | -0.1 | -40 | -1.3
Cc1nc(Cl)sc1C(=O)Nc1cccc(Cl)c1 | 4 | 2 | -8 | -2.0 | nt | -26 | -24 | -2.1 | -4 | -7.7
Cc1ccc(-c2nnc(CSc3nncn3N)o2)cc1 | 4 | 3 | -17 | 0.0 | -6 | nt | nt | nt | -4 | 1.8
CN(C)CCCNc1nc(N)c([N+](=O)[O-])c(NC2CCCCC2)n1 | -3 | -10 | 30 | 0.7 | -1 | 11 | 7 | 4.0 | -10 | 2.0

The list goes on.
SMILES | B2AR ag | Beta apoptosis | T cruzi repl | Bfl-1 A1 inh | ALR inh | Ecoli rRNA inh | Ecoli rRNA inh OD600 | Ecoli rRNA inh RFP | Calb FLC | LANA-H2A inh
CCOC(=O)C1(C)NC(c2ccco2)C2C(=O)N(c3ccccc3)C(=O)C21 (configuration not stated) | -4 | -4 | -12 | 0.5 | nt | 8 | 19 | 3.4 | -16 | 2.6
Clc1cccc(N2CCN(Cc3nnc(-c4ccccc4)o3)CC2)c1 | -2 | 1 | 0 | -0.9 | 3 | -2 | -34 | -4.8 | -4 | -2.3
O=C(O)CCC(=O)NCC(=O)c1ccc(F)cc1 | -6 | 4 | -3 | 0.2 | -18 | 21 | 16 | 1.5 | -4 | -1.7
CCCS(=O)(=O)C(=C1NCCO1)S(=O)(=O)CCC | 1 | -2 | 6 | 0.3 | -4 | nt | nt | nt | 2 | -2.0
CCNC(=S)N1CCN(CCN=CC2=C(O)CC(c3ccco3)CC2=O)CC1 (configuration not stated) | -7 | -12 | -3 | -1.0 | nt | nt | nt | nt | -3 | 6.9
Cc1nnc(C)n1/N=C/C=C/c1ccccc1 | -2 | -1 | -1 | 0.7 | nt | nt | nt | nt | 6 | -6.9
CC(C)N(C(=O)CC1ON(C)C(=O)N1c1ccc(Cl)cc1)C(C)C (configuration not stated) | 0 | -4 | -1 | 0.5 | -3 | -10 | -4 | 2.4 | 33 | -0.6
CN(C)CCn1c(=O)n(Cc2ccccc2)c(=O)c2c3c(sc21)CCCCC3 | 25 | 8 | 59* | 1.4 | -38 | -27 | -69 | 10.0 | -3 | -2.7
